# RN4220 kill = kills Staphylococcus aureus RN4220 | inhibition, % (test concentration not listed) | S. aureus RN4220 growth, OD600, 16 h | hit rate 0.33% among 330,000;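 active = z-score of -3 or lower and OD600 up to 0.18 on both plates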;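 note: plate controls were untreated cells for no effect and reference antibiotic for full effect; stock transfer was 100 nL into about 80 µL; one replicate is shown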
# PrP 5UTR inh = inhibition of PrP 5' UTR reporter expression; cell-based PrP 5' UTR mRNA reporter, plate reader; inhibition, % (no concentration beside the values); hit rate 0.35% among 340,000; AID 488862;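 active = every replicate at 50% or more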;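 note: 0 = median of the neutral control wells; tested in H4 reporter cells; numbers are from one replicate; inactives centre near -14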
# BJeLR viability = kills HRASV12-expressing BJeLR cells | BJeLR (HRASV12) viability, CellTiter-Glo ATP luminescence, 48 h; reference of the scale not given here | inhibition, % (concentration not given with the values) | hit rate 0.17% among 300,000;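 active = replicate mean above 50%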;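 note: 50 nL library stock added to about 25 µL; numbers are from one replicate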
# Bead autofluor = flagged as autofluorescent in microsphere protease counterscreen. AID 624483. fluorescence intensity (test concentration not listed). hit rate 3.1% among 360,000. compound autofluorescence counterscreen, microsphere flow cytometry; hits give high values;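 active = at least 3 SD above the mean of all compounds, about 16000 in these data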;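 note: 100 nL of 1 mM stock went into each well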
# Mtb hypoxia inh = reduces hypoxia-regulated biosensor signal in M. tuberculosis; M. tuberculosis hypoxia-regulated fluorescent reporter, fluorescence; fluorescence inhibition, % (concentration not given with the values); hit rate 0.1% among 300,000;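 active = 35 to 45% if threefold the growth effect, above 45% if 1.5-fold the growth effect; inactive = the rest, general growth blockers included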;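 note: wells of about 50 µL received 100 nL stock; 0% = vehicle wells and 100% = reference inhibitor wells; whole bacteria with a GFP reporter of the hypoxia response; strong numbers were not always called active; many hits fall short of the cut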
# ugtP null kill = growth inhibition of S. aureus ugtP deletion strain; S. aureus RN4220 ugtP deletion, OD600 growth, 16 h; some inactives read as strong as hits; growth inhibition, % (test concentration not listed); hit rate 0.54% among 330,000; AID 1259309;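 active = z-score under -3 and OD600 up to 0.15 on both plates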;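 note: plate controls were untreated wells for no effect and antibiotic for full effect; wells of about 80 µL received 100 nL stock; the first replicate is given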
# Mtb hypoxia inh growth = also measured in Mtb hypoxia inh; calls as there; growth inhibition, %; measured here: M. tuberculosis growth (absorbance);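 0% = vehicle and 100% = reference antibiotic; read after six days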
# * hit, by the source's call; nt = not tested or not shown. Compounds as they come; any-hit rate near 4%.
# Preview:
SMILES,RN4220 kill,PrP 5UTR inh,BJeLR viability,Bead autofluor,Mtb hypoxia inh,Mtb hypoxia inh growth,ugtP null kill
CCOC(=O)C(CCCOc1ccccc1)C(=O)OCC,-16,-9,5,3252,-2,4,0
COc1ccc2c(c1OC)C(=O)OC2,1.4,7,2,3913,nt,nt,-10
Cc1cnn(-c2cc(NN=Cc3ccccc3Cl)ncn2)c1,8.2,nt,nt,nt,10,1,11
O=C(O)C1CCCCC1C(=O)Nc1ccccc1C(=O)N1CCN(c2ccc(F)cc2)CC1 (centres undefined),3.7,-8,-19,2043,0,0,2
CC1Cc2ccccc2N1CC(=O)NCc1ccccc1Cl (centres undefined),3.1,-5,-7,2379,3,7,-2
O=c1[nH]c2ccccc2nc1-c1c[nH]c2ccccc12,0.7,-21,3,3946,9,6,-22
CC1CN(C(=O)Nc2cccc(Cl)c2)C2(CCCCCC2)O1 (centres undefined),-3.7,-18,3,2466,-1,6,11
O=C(NC(=S)Nc1ccc(S(=O)(=O)Nc2ncccn2)cc1)c1cccc(Br)c1,17,-21,6,3861,16,20,-8
COc1ccc(-c2nn(CCC#N)cc2C(=O)Nc2ccccn2)cc1OC,0.8,-8,2,3191,-2,9,3
CC(NS(=O)(=O)c1ccc(Br)cc1)C(=O)NCc1ccc2c(c1)OCO2 (centres undefined),-6.0,-22,-11,4868,2,3,5
COC(=O)c1sc2nc(CSc3ccc(Br)cc3)[nH]c(=O)c2c1C,-8.7,-18,0,4837,-5,-6,-1
CC(C)[C@H](CN(N=O)[C@@H](Cc1ccccc1)CN(C)N=O)N(CCc1ccccc1)N=O,nt,-16,-8,3471,nt,nt,nt
N#C/C(=C\c1ccc(OCCN2CCOCC2)cc1)C(=O)Nc1ccccc1,4.2,-27,-1,6295,4,-9,6
Cc1ccccc1-c1nc(CN2CCC(C(=O)NC3CCCCC3)CC2)c(C)o1,-0.4,-20,4,5193,4,3,2
CC1(C)CC2C3=CCC4[C@@]5(C)CCC(O)[C@@](C)(CO)C5CC[C@@]4(C)[C@]3(C)CC(O)[C@@]2(CO)C(O)C1O (some centres undefined),6.8,nt,nt,nt,2,5,-21
Cc1cc(OCCn2cnc3ccccc3c2=O)cc(C(C)C)c1,7.0,-12,-23,1995,10,3,4
O=C(Nc1ccno1)Nc1ccc(Cl)cc1Cl,17,-14,-9,4529,58*,11*,27
O=C(Cn1c2ccccc2c(=O)c2cc([N+](=O)[O-])ccc21)Nc1ccccc1Cl,nt,-29,-3,2335,nt,nt,nt
O=C(CSc1nnc(CNc2ccc(F)cc2)n1Cc1ccccc1)NCc1ccccc1,2.0,-13,7,4935,nt,nt,5

# Main list, from the first entry:
SMILES,RN4220 kill,PrP 5UTR inh,BJeLR viability,Bead autofluor,Mtb hypoxia inh,Mtb hypoxia inh growth,ugtP null kill
CCOC(=O)C(CCCOc1ccccc1)C(=O)OCC,-16,-9,5,3252,-2,4,0
COc1ccc2c(c1OC)C(=O)OC2,1.4,7,2,3913,nt,nt,-10
Cc1cnn(-c2cc(NN=Cc3ccccc3Cl)ncn2)c1,8.2,nt,nt,nt,10,1,11
O=C(O)C1CCCCC1C(=O)Nc1ccccc1C(=O)N1CCN(c2ccc(F)cc2)CC1 (centres undefined),3.7,-8,-19,2043,0,0,2
CC1Cc2ccccc2N1CC(=O)NCc1ccccc1Cl (centres undefined),3.1,-5,-7,2379,3,7,-2
O=c1[nH]c2ccccc2nc1-c1c[nH]c2ccccc12,0.7,-21,3,3946,9,6,-22
CC1CN(C(=O)Nc2cccc(Cl)c2)C2(CCCCCC2)O1 (centres undefined),-3.7,-18,3,2466,-1,6,11
O=C(NC(=S)Nc1ccc(S(=O)(=O)Nc2ncccn2)cc1)c1cccc(Br)c1,17,-21,6,3861,16,20,-8
COc1ccc(-c2nn(CCC#N)cc2C(=O)Nc2ccccn2)cc1OC,0.8,-8,2,3191,-2,9,3
CC(NS(=O)(=O)c1ccc(Br)cc1)C(=O)NCc1ccc2c(c1)OCO2 (centres undefined),-6.0,-22,-11,4868,2,3,5
COC(=O)c1sc2nc(CSc3ccc(Br)cc3)[nH]c(=O)c2c1C,-8.7,-18,0,4837,-5,-6,-1
CC(C)[C@H](CN(N=O)[C@@H](Cc1ccccc1)CN(C)N=O)N(CCc1ccccc1)N=O,nt,-16,-8,3471,nt,nt,nt
N#C/C(=C\c1ccc(OCCN2CCOCC2)cc1)C(=O)Nc1ccccc1,4.2,-27,-1,6295,4,-9,6
Cc1ccccc1-c1nc(CN2CCC(C(=O)NC3CCCCC3)CC2)c(C)o1,-0.4,-20,4,5193,4,3,2
CC1(C)CC2C3=CCC4[C@@]5(C)CCC(O)[C@@](C)(CO)C5CC[C@@]4(C)[C@]3(C)CC(O)[C@@]2(CO)C(O)C1O (some centres undefined),6.8,nt,nt,nt,2,5,-21
Cc1cc(OCCn2cnc3ccccc3c2=O)cc(C(C)C)c1,7.0,-12,-23,1995,10,3,4
O=C(Nc1ccno1)Nc1ccc(Cl)cc1Cl,17,-14,-9,4529,58*,11*,27
O=C(Cn1c2ccccc2c(=O)c2cc([N+](=O)[O-])ccc21)Nc1ccccc1Cl,nt,-29,-3,2335,nt,nt,nt
O=C(CSc1nnc(CNc2ccc(F)cc2)n1Cc1ccccc1)NCc1ccccc1,2.0,-13,7,4935,nt,nt,5
CC(C)(C)C(=O)Nc1ccc(-c2csnn2)cc1,3.9,-53,-1,3462,-1,6,7
O=C(NN=Cc1ccc(Br)s1)c1c[nH]c2ccccc12,-11,nt,nt,nt,19,-1,-7
CC(CN1CCOCC1)OC(=O)c1ccccc1 (centres undefined),3.0,-9,-11,3519,8,5,3
Cc1ccnc2nc(C(=O)OCCOc3cccc(Br)c3)nn12,9.6,-8,12,3865,nt,nt,-1
C/C(=N\NC(=O)c1c[nH]c2ccccc12)c1ccc(C)o1,nt,-14,-3,23011*,nt,nt,nt
COc1ccccc1-c1c(NC(=O)c2ccco2)n(C)c2ccccc2c1=O,4.4,nt,-3,nt,13,4,10
O=C(CCCNS(=O)(=O)c1ccccc1)NCc1ccco1,0.2,-24,-3,8467,14,7,-4
CC(=O)NC(Cc1cccc(F)c1)C(=O)NC1CCN(c2ncccc2[N+](=O)[O-])CC1 (centres undefined),6.4,-20,-1,3344,8,3,8
COc1cc2c(cc1OC)CN(C(=O)c1ccc(S(=O)(=O)N3CCCCCC3)cc1)CC2,1.1,-1,-4,2468,8,2,1
CCOC(=O)[C@@H]1[C@H]2COc3ccccc3[C@H]2N2C(=O)N(c3ccc(C)cc3)C(=O)[C@]12C,nt,1,-5,2820,nt,nt,nt
COc1ccccc1N1CCN(C(=O)C2CCCO2)CC1 (centres undefined),1.4,-11,2,8776,7,4,1
CCN(CC)CCN(C(=O)c1ccc2ncsc2c1)c1nc2cc3c(cc2s1)OCO3,5.4,-87,6,5266,10,9,9
COc1cccc(CNC(=O)Cn2cc([N+](=O)[O-])cn2)c1,1.3,-7,5,nt,6,1,9
CCCC(=O)OCCNc1cc(Sc2nccn2C)c2nonc2c1[N+](=O)[O-],5.0,-5,94*,2124,24,20,6
Cc1ccc(/C=C2\OC(=O)c3ccccc32)cc1,5.5,-16,7,7935,8,-1,1
CCC1=C(OC(=O)N(CC)CC)N2C(=O)OC(=NCCc3c[nH]c4ccccc34)[C@]2(C)[C@H]2C1=CC[C@H]1C(=O)N(CC(=O)OC)C(=O)[C@H]12,nt,-5,-7,3931,nt,nt,nt
COC(=O)CCN(c1ccccc1)S(=O)(=O)c1cc(-c2cc(C)no2)ccc1OC,9.1,-10,3,4674,5,1,15
Cc1c(OCC(=O)OC(C)(C)C)ccc2c3c(c(=O)oc12)CCC3,-0.2,-22,-8,5189,nt,nt,18
O=C(CN1C(=O)NC2(CCCCCC2)C1=O)N1CCN(c2ccc(F)cc2)CC1,3.0,-19,nt,5204,1,1,2
CC(=O)c1cccc(NC(=O)CSc2ccc(-c3ccc4c(c3)OCO4)nn2)c1,0.6,-37,-4,7628,4,5,14
Cc1nnsc1NC(=O)OCCCl,3.6,-4,1,2716,nt,nt,1
CCOCC(=O)N1CCN(c2ccc(F)cc2)CC1,-5.5,7,2,3650,nt,nt,0
NC(N)=NCCCC(NC(=O)OCc1ccccc1)C(=O)O (centres undefined),4.7,nt,nt,nt,8,5,-1
Clc1ccc(OCc2nnc(-c3ccccc3Br)o2)c(Cl)c1,11,-102,-5,9103,15,-1,7
Oc1ccc(C=NNc2ccccc2)cc1,-9.3,nt,nt,nt,7,-1,1
C=CCN(CC=C)C(=S)NC(=O)c1ccc([N+](=O)[O-])cc1,4.4,48,4,2095,11,12,14
Cc1cccc(Nc2c([N+](=O)[O-])c(=O)n(C)c3ccccc23)c1,6.5,-15,-4,2348,1,6,3
O=C(Cc1csc(N2CCOCC2)n1)NN=Cc1ccc(F)cc1,4.8,nt,nt,nt,-1,2,5
Cc1ccc(NC(=O)c2cc(=O)c3ccccc3o2)c(C)c1,5.6,-39,-8,2763,9,-1,5
CCOC(=O)CSC1=C(C#N)C(c2ccc(C)s2)CC(=O)N1 (centres undefined),2.9,-4,16,10577,-4,-8,4
CCOC(=O)/C(=N\Nc1ncnc2ccccc12)c1ccc(C)cc1,nt,-25,-4,5825,nt,nt,nt
Cc1cc(C(=O)CN2C(=O)NC3(CCC(C)CC3)C2=O)c(C)n1C (centres undefined),-0.1,4,-10,4597,1,-4,2
CCN1CCc2c(sc(N)c2C#N)C1,-10,-11,5,4553,nt,nt,8
Cc1ccc(CS(=O)(=O)CCC(=O)NCCCN2CCCC2=O)cc1,5.7,-9,-1,2830,3,3,-1
CCN(CC(=O)Nc1ccc(NC(C)=O)cc1)C(=O)Cc1c(Cl)cccc1Cl,0.0,-11,-3,6424,-3,5,0
CCOc1cccc(N(C(=O)c2ccco2)C(C(=O)NC2CCCC2)c2cccnc2)c1 (centres undefined),2.3,-14,-4,3418,2,7,2
COc1cc(C(=S)N2CCOCC2)cc(OC)c1OC(=O)c1cc([N+](=O)[O-])cc([N+](=O)[O-])c1,3.1,-14,7,4636,-3,6,2
C(=Nn1cnnc1)c1cccc(Oc2ccccc2)c1,-0.2,nt,nt,nt,6,-4,5
O=C(COc1ccc(Cl)cc1)NCc1nnc(SCC(=O)N2CCCCCC2)o1,-1.9,-5,-4,2475,4,6,9
Cc1ccc(S(=O)(=O)N2CCN(C(=O)c3ccco3)CC2)c(C)c1,0.6,-14,-7,3122,-1,-6,5
COc1cc(CN2CCC(C(=O)N3CCC(C)CC3)CC2)cc(Br)c1O,1.4,-39,3,10990,9,5,2

# New compounds follow.
SMILES,RN4220 kill,PrP 5UTR inh,BJeLR viability,Bead autofluor,Mtb hypoxia inh,Mtb hypoxia inh growth,ugtP null kill
COC(=O)c1ccccc1NC(=O)c1sc(Cl)nc1C,1.6,-8,-3,3347,5,-3,12
COc1ccc(C2c3cc(OC)c(OC)cc3CCN2C(=O)c2ccccc2Br)cc1OC (centres undefined),16,-8,6,2900,-7,9,-2
Cc1oc(-c2ccc(Cl)cc2)nc1CN1CCCC(C(=O)NCc2ccccn2)C1 (centres undefined),1.9,-14,2,22724*,4,0,-2
COc1ccc2c(CC(=O)Nc3ccccc3OC)coc2c1,0.8,-11,-30,4250,14,-3,4
O=C(O)c1cccc(-c2ccc(/C=C3/SC(=Nc4ccccc4)N(Cc4cccnc4)C3=O)o2)c1,15,nt,-1,3031,-5,0,22
CC(O)c1cccc(-c2ccc(CN3C[C@]4(CO)O[C@@H](CO)C[C@@H]4S3(=O)=O)cc2)c1 (some centres undefined),2.5,2,nt,4286,-11,2,-2
N#CCCn1cc(C(=O)CN2C(=O)NC3(CCCCCC3)C2=O)c2ccccc21,6.7,-14,nt,3339,-6,-4,10
CCOC(=O)C(C)Sc1nnc(NC(=O)c2cccc([N+](=O)[O-])c2C)s1 (centres undefined),10,-7,-8,2132,13,7,2
CCc1c(O)nc(SCC(N)=O)n(-c2ccccc2F)c1=O,0.7,-21,-4,8018,-3,-3,5
